# Source: PubChem BioAssay (several laboratories)
# GALR2 agonist: activates the human galanin receptor 2 | activation, %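 (tested at 5 µM)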 | GALR2-expressing cells, agonist activation read-out | O43603 | AID 803 | 0.48% of 140,000 active;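 active means above mean plus 3 SD of all compounds, about 5% in these data, not always enough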;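 further: 0% = vehicle buffer wells and 100% = reference agonist at full effect; tested in CHO reporter cells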
# PKD1 inh: inhibitors of human PKD1 kinase; Q15139; PKD1 kinase fluorescence polarization assay; inhibition, %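 (about 10 µM by stock and volumes)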; 0.056% of 200,000 active;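 active means inhibition of 50% or more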;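 further: controls were vehicle for no effect and a reference inhibitor for full effect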
# Target sequence (Q15139 whole entry, looked up): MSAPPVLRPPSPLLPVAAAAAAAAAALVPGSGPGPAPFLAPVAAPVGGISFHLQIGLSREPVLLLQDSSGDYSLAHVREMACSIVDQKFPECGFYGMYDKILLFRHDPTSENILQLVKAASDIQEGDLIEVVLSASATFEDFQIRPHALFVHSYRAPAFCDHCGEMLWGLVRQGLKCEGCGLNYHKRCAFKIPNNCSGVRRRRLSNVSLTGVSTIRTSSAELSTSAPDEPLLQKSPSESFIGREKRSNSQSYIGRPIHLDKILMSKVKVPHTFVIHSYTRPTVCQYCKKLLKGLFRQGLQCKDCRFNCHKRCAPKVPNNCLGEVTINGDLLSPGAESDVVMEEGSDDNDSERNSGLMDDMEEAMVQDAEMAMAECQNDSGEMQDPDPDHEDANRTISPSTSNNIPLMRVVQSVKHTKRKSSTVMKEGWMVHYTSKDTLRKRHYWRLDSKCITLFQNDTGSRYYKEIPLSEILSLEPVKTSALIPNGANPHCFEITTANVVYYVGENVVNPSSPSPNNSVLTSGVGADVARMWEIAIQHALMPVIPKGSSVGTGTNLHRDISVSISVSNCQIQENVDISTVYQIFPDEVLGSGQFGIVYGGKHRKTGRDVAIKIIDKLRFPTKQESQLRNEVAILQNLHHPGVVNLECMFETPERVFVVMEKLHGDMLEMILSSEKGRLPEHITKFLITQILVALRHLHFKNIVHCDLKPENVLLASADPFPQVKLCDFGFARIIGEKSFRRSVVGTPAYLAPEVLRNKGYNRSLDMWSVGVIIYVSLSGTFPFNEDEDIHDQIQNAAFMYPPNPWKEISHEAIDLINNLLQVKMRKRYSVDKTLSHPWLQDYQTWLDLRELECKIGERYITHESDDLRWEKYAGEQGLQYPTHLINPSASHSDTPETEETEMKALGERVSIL
# RGS16-Gao: regulators of human RGS16-Galphao interaction; O15492+P09471; binding response (% of control), % at 10 µM; 0.38% of 220,000 active; bead-based flow cytometry RGS16-Galphao binding, fluorescence; actives lie on both sides; AID 1441;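 active means below 25% or above 175%, edge rows of some plates excepted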;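 further: Galphao activated by GDP with aluminum fluoride before binding; 100% = wells without compound and 0% = beads without RGS; some results beyond the cut were filed as inactive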
# HSV replic up: increases HSV replication in cells | HSV replication augmentation in cells, fold increase | AID 1956 | maximum fold increase | 0.005% of 220,000 active;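 active means peak rise of 1.5-fold or more in the series; tested in PC3 cells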;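 further: first round at 10 µM; read as green reporter fluorescence; hits show the peak of a series up to 25 µM; 1 = signal of infected wells without compound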
# INS promoter inh: TRM-6 insulin promoter activity inhibition; TRM-6 cells (human fetal islet line), insulin promoter-eGFP reporter, imaging; reporter expression induced with tamoxifen; inhibition, % at 2 µM; 0.9% of 130,000 active; AID 1273;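 active means inhibition above the mean plus 3 SD, with well images judged a real hit on visual review, cut at about 60% in these data, passing the limit was not always enough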
# INS promoter inh cell count: further read-out of INS promoter inh, marked with its call; normalized cell count, %; measured here: cell count, toxicity; reference of the scale not given here;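 cells exposed to compound for 48 h; stained nuclei by imaging scaled within each plate; lower means fewer cells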
# HSV replic up primary fold: second read-out of HSV replic up, no call of its own (marks repeat the call); fold increase; compound at 10 µM; measured here: primary screen fold increase 10 uM; tested in PC3 cells;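 GFP signal in the first replicate; 1 = infected wells without compound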
# Numbers without * were called inactive; i = inactive; . = not tested or not shown.
# Results follow in this order: GALR2 agonist	PKD1 inh	RGS16-Gao	HSV replic up	HSV replic up primary fold	INS promoter inh	INS promoter inh cell count
> CCc1nnc(NC(=O)CSc2nnc(-c3ccncc3)n2Cc2ccccc2)s1
    -0.2	7	101	i	0.84	45	91
> COc1ccc(C(c2nnnn2C2CCCCC2)N2CCN(c3ccc(OC)cc3)CC2)cc1 (stereo not given)
    -0.9	3	110	i	1.1	.	.
> CCOc1ccc(N2C(=O)/C(=C\c3ccccc3OC)S(=O)(=O)C2c2cccc([N+](=O)[O-])c2)cc1 (stereo not given)
    -0.9	-5	100	i	0.87	-7	136
> CCC(C)NS(=O)(=O)c1ccc(NC(=O)Cc2ccc(OC)cc2)cc1 (stereo not given)
    .	-4	101	i	0.99	-14	95
> Cc1ccc(S(=O)(=O)NNC(=O)c2sccc2-n2cccc2)cc1
    -1.1	-7	111	i	0.95	62	71
> O=C(NN=C1CCCC1)c1cc(-c2ccccc2)n[nH]1
    -1.1	-12	116	i	1	-37	53
> Cc1ccc(C(=O)NCC2CCCO2)o1 (stereo not given)
    2.2	1	100	i	0.97	59	78
> Cc1ccc(NC(=O)CCC(=O)OCC(F)(F)C(F)F)cc1
    -0.9	-10	108	i	0.97	-81	267
> CCC(C)C(N)C(=O)NC(CCC(=O)OCc1ccccc1)C(N)=O (stereo not given)
    -0.1	-8	106	i	0.96	0	112
> CC(C)n1c(O)c(N=NC(=O)c2ccccc2NS(=O)(=O)c2cccs2)c2ccccc21
    -0.5	2	107	i	0.98	.	.

# Record cards, from the list above. Order of screens: GALR2 agonist	PKD1 inh	RGS16-Gao	HSV replic up	HSV replic up primary fold	INS promoter inh	INS promoter inh cell count
# Shown for Cc1ccc(C(=O)NCC2CCCO2)o1 (stereo not given) = 2.2	1	100	i	0.97	59	78
# Shown for CCOc1ccc(N2C(=O)/C(=C\c3ccccc3OC)S(=O)(=O)C2c2cccc([N+](=O)[O-])c2)cc1 (stereo not given) = -0.9	-5	100	i	0.87	-7	136
# Shown for CC(C)n1c(O)c(N=NC(=O)c2ccccc2NS(=O)(=O)c2cccs2)c2ccccc21 = -0.5	2	107	i	0.98	.	.

# The listing picks up, starting 5 compounds before the break.
# Results follow in this order: GALR2 agonist	PKD1 inh	RGS16-Gao	HSV replic up	HSV replic up primary fold	INS promoter inh	INS promoter inh cell count
> O=C(NN=C1CCCC1)c1cc(-c2ccccc2)n[nH]1
    -1.1	-12	116	i	1	-37	53
> Cc1ccc(C(=O)NCC2CCCO2)o1 (stereo not given)
    2.2	1	100	i	0.97	59	78
> Cc1ccc(NC(=O)CCC(=O)OCC(F)(F)C(F)F)cc1
    -0.9	-10	108	i	0.97	-81	267
> CCC(C)C(N)C(=O)NC(CCC(=O)OCc1ccccc1)C(N)=O (stereo not given)
    -0.1	-8	106	i	0.96	0	112
> CC(C)n1c(O)c(N=NC(=O)c2ccccc2NS(=O)(=O)c2cccs2)c2ccccc21
    -0.5	2	107	i	0.98	.	.
> Cn1nnnc1SCc1ccc(F)cc1
    -0.3	-1	103	i	1	.	.
> C/C(N)=C(/C#N)C(=O)CSc1nc2ccccc2c(=O)n1-c1ccc(C)c(Cl)c1
    0.0	0	103	i	0.92	20	134
> CCOC(=O)C1C(c2cccc(Cl)c2Cl)NC(=O)NC1(O)C(F)(F)F (stereo not given)
    -3.2	-2	103	i	0.83	-50	122
> CC1(C)C(=O)OC(c2cccs2)C2(CCCCC2)C1=O (stereo not given)
    0.4	-8	95	i	1.2	.	.
> Cc1ccc(S(=O)(=O)N2CCN(C)CC2)c(C)c1N(C)S(=O)(=O)c1ccc(Cl)cc1
    -0.4	0	106	i	0.9	-31	48
> O=C(O)CSc1ccc2nnc(-c3cccnc3)n2n1
    .	7	99	i	1	57	155
> C#CCNC(=O)C1=C[C@@H](c2ccc(C(F)(F)F)cc2)C[C@@H](OCCCCO)O1
    .	-3	103	i	1	.	.
> COc1cccc(C2CC(=O)Nc3c2c(=O)n(C)c(=O)n3C)c1OC (stereo not given)
    -0.1	6	103	i	1.1	-29	130
> O=C(O)c1ccc(CSc2nnc(-c3ccncc3)n2-c2ccc(Cl)cc2)cc1
    .	11	105	i	1.1	.	.
> CCOC(=O)N1CCN(C(=O)CNC2CCCCCCC2)CC1
    .	4	97	i	1	.	.

# Carrying on.
# Results follow in this order: GALR2 agonist	PKD1 inh	RGS16-Gao	HSV replic up	HSV replic up primary fold	INS promoter inh	INS promoter inh cell count
> CCOC(=O)c1cc(-c2cccc([N+](=O)[O-])c2)nc2[nH]c(=O)[nH]c(=O)c12
    .	-7	101	i	0.83	33	133
> CC(c1ccccc1)N1C(=O)NC(NC(=O)c2cccnc2)(C(F)(F)F)C1=O (stereo not given)
    -1.9	-10	.	i	0.98	52	91
> C=CCC1(C#N)C(=S)NC(C)=C(C(=O)OCC)C1c1ccccc1 (stereo not given)
    .	.	104	i	0.97	.	.
> O=C(Cc1ccc([N+](=O)[O-])cc1)N1CCN=C1SCc1ccccc1
    -0.3	0	98	i	1.1	.	.
> O=C(c1ccc([N+](=O)[O-])cc1)N1CCc2ccccc2C1
    -1.0	-4	102	i	1.1	27	199
> O=Cc1cn(CC(=O)Nc2ccc3c(c2)OCO3)c2ccccc12
    .	3	110	i	0.64	-150	81
> COC(=O)c1ccc2c(=O)n(CCCCCC(=O)NCCNC(C)=O)c(=O)[nH]c2c1
    .	2	92	i	0.94	.	.
> CCc1ccccc1Nc1nc2ccccc2n1CC
    .	2	104	i	0.84	.	.
> Cc1cc(=O)[nH]c(SCC(=O)Nc2ccc3c(c2)OCCO3)n1
    .	7	111	i	1	.	.
> O=C(CSCCO)Nc1cc(C(F)(F)F)ccc1Cl
    -0.3	3	102	i	0.84	-310	51

# (next part)
# Results follow in this order: GALR2 agonist	PKD1 inh	RGS16-Gao	HSV replic up	HSV replic up primary fold	INS promoter inh	INS promoter inh cell count
> OC1CCN(C(=S)Nc2ccc(Nc3ccccc3)cc2)CC1
    .	-3	102	i	0.9	.	.
> C=C1c2ccccc2NC(=S)N1Cc1ccc2c(c1)OCO2
    .	-2	107	i	0.97	52	76
> CN(Cc1c(C(=O)N2CCc3ccccc3C2)nc2ccc(Cl)cn12)C(C1CC1)C1CC1
    .	-8	100	i	1	.	.
> CN1CCN(c2nc3c(c(=O)[nH]c(=O)n3C)n2CC(N)=O)CC1
    -1.5	-2	100	i	0.87	.	.
> COc1ccc(C2Nc3ccccc3C(=O)N2NS(=O)(=O)c2ccc(C)cc2)cc1 (stereo not given)
    .	-2	120	i	0.97	-17	98
> Cc1cc(C)c2c(=O)[nH]cnc2n1
    .	-7	98	i	0.8	.	.
> Cc1nc2ccc(S(=O)(=O)NC(C(=O)Nc3nccs3)C(C)C)cc2s1 (stereo not given)
    -3.2	-11	101	i	0.91	-80	78
> COc1ccccc1N1CCN(C(=O)CCc2ccc(S(=O)(=O)NCC(C)C)cc2)CC1
    -1.1	2	100	i	0.92	11	103
> COc1ccc(C(=O)CSc2nnc(NC(=O)C3CC(=O)N(c4ccccc4C)C3)s2)cc1 (stereo not given)
    -1.3	-3	40	i	1	.	.
> O=C(c1ccc(-n2cccc2)cc1)N1CCOCC1
    -1.4	8	93	i	0.94	.	.

# (list continues)
# Results follow in this order: GALR2 agonist	PKD1 inh	RGS16-Gao	HSV replic up	HSV replic up primary fold	INS promoter inh	INS promoter inh cell count
> COc1cc(NC(=O)c2cc(-c3ccco3)on2)c(OC)cc1Cl
    -2.6	-7	102	.	.	.	.
> COc1ccc(Cn2nc(C)cc2C)cc1OC
    -0.4	-14	102	i	1	.	.
> O=C(COc1ccccc1)N1CCN=C1SCc1cccnc1
    -1.0	5	107	i	1.1	.	.
> CC(C)CSc1nc2c(=O)[nH][nH]c(=O)c2n1Cc1ccccc1
    -0.7	-3	58	i	1	-50	98
> CCn1c(=O)c2cc(C(=O)Nc3cccc(C(C)=O)c3)sc2c2ccccc21
    .	.	99	i	0.89	.	.
> Cc1nc(-c2ccccc2)sc1C(=O)NN
    .	1	108	i	0.76	.	.
> CCC1(CC)Cc2ccccc2-c2nc(NN)[nH]c(=O)c21
    .	.	106	i	1.1	.	.
> CC(=O)COc1ccc2c(-c3cccc([N+](=O)[O-])c3)cc(=O)oc2c1
    .	2	104	i	0.99	46	122
> COc1cc(/C=N/NC(=O)c2cccnc2)ccc1OCC(=O)N1CCOCC1
    0.4	10	99	i	1	.	.
> CCCC(=O)NC(C)c1nc2ccccc2[nH]1 (stereo not given)
    -1.5	23	105	i	1	.	.

# Further compounds follow.
# Results follow in this order: GALR2 agonist	PKD1 inh	RGS16-Gao	HSV replic up	HSV replic up primary fold	INS promoter inh	INS promoter inh cell count
> O=C(c1ccc(Cl)cc1Cl)N1CCC(c2nc3c(nnn3Cc3ccco3)c(=O)[nH]2)CC1
    0.6	-2	97	i	0.96	-64	212
> O=C(c1n[nH]c2ccccc12)N1CCOCC1
    .	1	90	i	0.86	.	.
> COc1ccc(NC(=O)Cc2coc3ccc4ccccc4c23)cc1S(=O)(=O)N1CCOCC1
    -0.5	-5	110	i	0.82	-30	147
> CC1CCN(C(=O)c2cc(F)c(F)cc2Cl)CC1
    -1.8	2	104	i	0.98	31	136
> CCCc1nc2oc3c(Cl)ncnc3c2c2c1CCCC2
    .	.	103	i	1	.	.
> COc1ccc(CNC(=O)C2CC(C)=C(C)CC2C(=O)O)cc1 (stereo not given)
    -0.9	-3	89	i	1.2	0	99
> CC(C)C(O)C1CCN(Cc2nc(-c3cccs3)no2)CC1 (stereo not given)
    .	-2	101	i	1.2	.	.
> O=C(CCn1nc(-c2ccccc2)ccc1=O)N1CCOCC1
    -2.2	-23	102	.	.	40	123
> Cc1cc2cc(CN(Cc3ccco3)C(=S)NCC3CCCO3)c(=O)[nH]c2cc1C (stereo not given)
    -1.9	-8	105	.	.	8	71
> CCOC(=O)C1(CCOC)CCN(Cc2ccc(COC)o2)CC1
    .	11	100	i	0.95	.	.

# Next results follow.
# Results follow in this order: GALR2 agonist	PKD1 inh	RGS16-Gao	HSV replic up	HSV replic up primary fold	INS promoter inh	INS promoter inh cell count
> CCOC(=O)N1CCN(C(=O)CCCn2c(=O)[nH]c3ccccc3c2=O)CC1
    0.5	1	102	i	0.83	.	.
> COc1cccc(SCc2noc(C(=O)NC(C)C)c2C(=O)O)c1
    -2.9	5	201	i	0.84	-16	96
> Cc1ccc(NC(=S)NCCN2CCOCC2)cc1F
    .	-1	108	i	1	.	.
> O=C(Nc1ccccc1)c1ccc(N2CCN(c3ccccc3)CC2)c(S(=O)(=O)N2CCOCC2)c1
    -4.7	-4	97	i	0.92	42	91
> Cc1cc(N2CCCCCC2)nc(-c2ccccc2O)n1
    -2.6	-6	104	.	.	3	108
> CCN(C(=S)NCc1ccccc1)c1cccc2ccccc12
    .	-3	102	i	0.96	-20	97
> CCn1c(CC(=O)Nc2ccccc2)nnc1SCC(=O)Nc1ccccc1C(=O)OC
    -0.4	-1	103	i	1	8	130
> COc1ccc(C(=O)Oc2ccc(C(=S)N3CCOCC3)cc2)cc1
    .	-9	94	i	0.86	.	.
> O=C(c1ccc2c(c1)OCCO2)N1CCN(c2ccc([N+](=O)[O-])cc2)CC1
    .	-2	95	i	1.1	-7	69
> CCn1c(=O)cc(OCC(=O)Nc2ccc3c(c2)OCCO3)c2ccccc21
    -0.9	-1	104	i	0.9	-100	59

# Carrying on.
# Results follow in this order: GALR2 agonist	PKD1 inh	RGS16-Gao	HSV replic up	HSV replic up primary fold	INS promoter inh	INS promoter inh cell count
> CCC(C)c1ccccc1NC(=O)C1CCCO1 (stereo not given)
    -3.0	-16	100	i	1	29	127
> CCc1ccccc1NC(=O)Nc1cc(F)ccc1F
    .	-6	101	i	0.9	.	.
> N#Cc1c(NC(=S)NC(=O)c2ccccc2)sc2c1CCCC2
    0.1	-4	100	i	0.82	26	148
> Cc1ccc(NS(=O)(=O)c2cc(C(=O)NCc3ccccn3)ccc2Cl)cc1C
    -1.4	11	102	i	0.9	.	.
> Cc1ccc(C(=O)NCC#N)cc1
    .	4	102	i	1	19	142
> CC(C)OCCCNC(=O)C1CCN(S(=O)(=O)N2CCCC2)CC1
    .	1	105	.	.	-43	137
> CSc1nnc2c(n1)OC(c1ccsc1)N(C(C)=O)c1ccccc1-2 (stereo not given)
    0.2	-1	54	i	0.93	11	152
> CC(=O)Nc1ccc(Nc2cc(N3CCOCC3)c3nonc3c2[N+](=O)[O-])cc1
    .	-2	104	i	0.99	29	75
> COc1ccc(CCC(=O)Nc2nc(-c3ccncc3)cs2)cc1
    .	-2	100	i	0.95	0	129
> COc1ccc(C(=O)Nc2ccncc2)c(OC)c1
    .	-5	106	i	1.1	.	.
> Nc1ccc(C23CC4CC(CC(O)(C4)C2)C3)cc1
    -0.8	5	59	i	0.93	-74	133
